HCMV UL50-53 inh: disrupts HCMV UL50-UL53 complex binding; HTRF UL50-UL53 interaction, normalized percent inhibition; inhibition, % (no concentration beside the values); hit rate 0.15% among 190,000;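 active = both replicates at 50% or more, plus weaker picks with an unusually low signal ratio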;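 also: stock transfer was 100 nL into about 20 µL; 0% = negative control wells and 100% = wells with untagged competitor protein; inactives centre near -12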
Sa growth 42C: S. aureus growth inhibition; relative growth, % (test concentration not listed); S. aureus RN4220 growth, OD600, 20 h, 42 °C; active compounds read low; hit rate 0.53% among 170,000; AID 720641;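 active = growth at 42 °C up to 50% and 20 or more points under that at 30 °C, or under 10% at both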;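 also: 300 nL library stock went into each well; scaled to the means of positive and negative controls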
GIV-Gai inh: inhibitors of GIV GBA-motif binding to rat Galpha-i3 | P08753 | hit rate 0.42% among 210,000 | Galpha-i3/FITC-GIV peptide fluorescence polarization, 90 min; active compounds read low; scaled: aluminum fluoride 0%, vehicle 100% | percent of control (FP), % (no concentration beside the values);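 active = replicate mean at 85% of control or lower, very high polarization wells dropped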;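 also: wells of about 15 µL received 100 nL stock; the first replicate is given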
Target sequence (P08753 whole entry, looked up): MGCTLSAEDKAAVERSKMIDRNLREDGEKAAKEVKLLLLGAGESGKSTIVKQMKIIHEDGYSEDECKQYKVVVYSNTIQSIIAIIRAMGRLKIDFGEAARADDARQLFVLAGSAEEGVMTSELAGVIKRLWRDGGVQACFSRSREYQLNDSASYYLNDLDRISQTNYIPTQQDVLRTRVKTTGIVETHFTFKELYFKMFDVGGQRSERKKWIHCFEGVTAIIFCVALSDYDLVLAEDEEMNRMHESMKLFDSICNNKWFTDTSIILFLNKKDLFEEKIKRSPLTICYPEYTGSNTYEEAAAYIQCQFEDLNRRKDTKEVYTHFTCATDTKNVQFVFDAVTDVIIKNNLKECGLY
Sa growth 42C second temp: also measured in Sa growth 42C; calls as there; relative growth, %; measured here: growth at 30 °C;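 optical density after 20 h as mean of two plates; 100% = untreated growth and lower means inhibition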
Active calls of the source: *; / = no result given; & = joins results of further samples.

Molecule	Sa growth 42C second temp	GIV-Gai inh	Sa growth 42C	HCMV UL50-53 inh
CC(C(=O)Nc1ccc(Cl)cn1)N(C)Cc1c(F)cccc1Cl (stereo unspecified)	90	/	81	-19
Cc1cc(C)cc(NC(=O)CCC(=O)N2Cc3ccccc3Oc3ncccc32)c1	83	99	116	/
CCCS(=O)(=O)N1N=C(c2ccc(C)cc2)CC1c1ccco1 (stereo unspecified)	101	7.4*	106	-10
CC1=C/C(=C/N(C)c2ccccc2)C(=O)S1	64	100	79	/
Cc1csc(Cc2nc3ccccc3n2C)n1	96	/	126	-39
CCC(Sc1nc2ccccc2o1)C(=O)Nc1ccc(Cl)cn1 (stereo unspecified)	/	100	/	-5
Cc1ccc(-n2nnnc2CNC(=O)c2ccccc2F)cc1C	90	97	102	/
CCOc1ccc(CN(C)CCc2ccccn2)cc1	85	102	114	-4
CC(=O)n1c(SCC(=O)NC2=NN=C(c3ccc(C)cc3)CS2)nc2ccccc21	80	100	101	-18
COc1ccc(-c2nc(SCC(=O)Nc3ccccc3)c(-c3ccc(F)cc3)[nH]2)cc1OC	83	102	114	3
COc1ccc(-c2nc3cc(NC(=O)COc4ccc(F)cc4)ccc3o2)cc1	82	98	100	-19
Cc1ccc(C)c(Cn2c(C)c(CNCc3ccc(F)cc3)c(C(=O)O)c2C)c1	84	106	109	-26
Cc1ccc(C2=C/C(=C\c3cccnc3)C(=O)O2)cc1	91	101	92	-18
NCC(O)CN(c1ccccc1)c1ccccc1 (stereo unspecified)	80	108	110	-12
CC1CCCCN1S(=O)(=O)c1cccs1 (stereo unspecified)	104	108	105	-7
Cc1cccc(NC(=O)Cn2c(=O)n(Cc3ccccc3)c(=O)c3c(C)c(C(=O)N(C)C)sc32)c1	94	101	71	3
CCCC(=O)NC(C)c1nc2ccccc2n1Cc1ccccc1 (stereo unspecified)	85	101	108	-18
O=C(O)CC(C(=O)O)c1c[nH]c2ccccc12 (stereo unspecified)	80	103	102	-22
Nc1ncnc2c1ncn2C1CCCC1	/	98	/	-28
CCOC(=O)c1c(-c2ccccc2)oc2ccc(OCC(=O)c3ccc(Br)cc3)cc12	/	103	/	7
CCCCS(=O)(=O)Nc1nccs1	85	/	93	-38
COc1ccc(N=C2SCC(=O)N2C)cc1	70	106	101	-5
N#C/C(=C\c1cccs1)c1csc2ccc(Cl)cc12	12	106	44	-20
CN1C/C(=C\c2cc(Br)cs2)C(=O)/C(=C/c2cc(Br)cs2)C1	82	103	113	/
Cc1sc2ncn3c(SCC(=O)Nc4ccccc4)nnc3c2c1C	/	98	/	-34
COc1ccc(N=C2SC(C(=O)Nc3ccc(C(=O)O)cc3)CC(=O)N2Cc2ccc3c(c2)OCO3)cc1 (stereo unspecified)	/	106	/	-19
C=CCNc1oc(-c2ccc(S(=O)(=O)N3CCCC3)cc2)nc1C#N	/	99	/	-32
O=C(NC1CCCC1)c1ccccc1C(F)(F)F	93	/	93	-20
CCN(CC)C(=O)N1CCN(C(=O)N(CC)CC)CC1	102	103	91	-25
O=C(Cn1cnc(S(=O)(=O)N2CCCCC2)c1)NC1CCN(Cc2ccccc2)CC1	/	107	/	3
Nn1c(SCc2ccccc2)nc2ccccc21	93	/	90	-25
Cc1ccc(CN(C(=O)c2ccccc2Br)C2CCS(=O)(=O)C2)o1 (stereo unspecified)	89	102	109	-5
O=C1CC(c2ccc(S(=O)(=O)NC3CCCCC3)cc2)CN1 (stereo unspecified)	95	102	105	-13
CN(C)S(=O)(=O)c1ccc2c(c1)nnn2CCNC(=O)Nc1ccc(Cl)cc1	84	106	95	/
COc1cccc(NC(=O)CSC2=Nc3ccccc3C3=NC(CC(=O)NCCc4ccccc4)C(=O)N23)c1 (stereo unspecified)	98	108	76	/
Cc1nnc(NC(=O)Cn2c(=O)sc3ccccc32)s1	94	100	98	3
CCOC(=O)C1CCN(C(c2cccnc2)c2nnnn2Cc2ccccc2)CC1 (stereo unspecified)	87	96	110	7
CC(C#N)OC(=O)c1ccccc1Sc1ccccc1C#N (stereo unspecified)	90	/	97	-15
CCCNC(=O)C1Cc2cc(S(=O)(=O)N3CCCCCC3)ccc2N1C(C)=O (stereo unspecified)	92	104	99	/
Cc1ccc(S(=O)(=O)c2cn(Cc3ccc(F)cc3)c3cc(F)c(F)cc3c2=O)cc1	80	108	107	3
COc1cc(C2C(C#N)=C(N)Oc3n[nH]c(-c4cccc([N+](=O)[O-])c4)c32)ccc1OC(=O)c1cccs1 (stereo unspecified)	/	101	/	-28
COC(=O)C(Cc1ccc(O)cc1)NC(=O)c1ccccc1OC (stereo unspecified)	91	109	83	/
CCn1nnc2cc(C(=O)N(C)CC(=O)Nc3ccc(S(N)(=O)=O)cc3)ccc21	/	100	/	-1
CCN(c1ccccc1)S(=O)(=O)c1ccc2c(c1)OCCN2C(C)=O	84	97	107	/
O=C(CSc1ncccc1C(F)(F)F)c1cccc(C(F)(F)F)c1	105	100	95	10
NC(=O)C(F)(F)C(F)(F)C(F)(F)C(F)F	102	/	97	7
Cc1ccc2[nH]cc(CCN3CC(C(=O)NC4CCCCC4)CC3=O)c2c1 (stereo unspecified)	/	100	/	-10
CCCS(=O)(=O)N1CC(=O)N(c2cccc(Cl)c2)C(C)(C(=O)NC2CCCCC2)C1 (stereo unspecified)	90	107	141	/
CCOC(=O)c1cc(C(=O)NCc2ccccc2)c(=O)[nH]c1C	108	97	106	1
Cc1ccc(/C=N/n2cnnc2)cc1	77	103	89	-25
O=[N+]1C2=C(CCCC2)N([O-])C12CCCC2	97	105	96	-19
O=C1CC(=O)CC(c2ccc(F)cc2)C1	/	100	/	-10
CC(=O)N1CCCc2cc(S(=O)(=O)N3CCCC(C(=O)Nc4cc(Cl)ccc4C)C3)ccc21 (stereo unspecified)	95	105	119	/
C=CCN(CC(=O)N1CCCc2ccccc21)S(=O)(=O)c1cccs1	94	/	97	-26
CC1=C(C)CC2(SC1)C(=O)N(c1ccccc1)N=C2N (stereo unspecified)	96	/	104	-27
Cc1cc(C)c2nc(N3CCC(C(=O)NCCCN4CCCCC4)CC3)sc2c1	87	107	96	-2

Seven entries picked at random from the list so far, as already listed:
Molecule	Sa growth 42C second temp	GIV-Gai inh	Sa growth 42C	HCMV UL50-53 inh
NCC(O)CN(c1ccccc1)c1ccccc1 (stereo unspecified)	80	108	110	-12
NC(=O)C(F)(F)C(F)(F)C(F)(F)C(F)F	102	/	97	7
Nc1ncnc2c1ncn2C1CCCC1	/	98	/	-28
CCCS(=O)(=O)N1N=C(c2ccc(C)cc2)CC1c1ccco1 (stereo unspecified)	101	7.4*	106	-10
CC1CCCCN1S(=O)(=O)c1cccs1 (stereo unspecified)	104	108	105	-7
CCN(c1ccccc1)S(=O)(=O)c1ccc2c(c1)OCCN2C(C)=O	84	97	107	/
COc1cc(C2C(C#N)=C(N)Oc3n[nH]c(-c4cccc([N+](=O)[O-])c4)c32)ccc1OC(=O)c1cccs1 (stereo unspecified)	/	101	/	-28

Later entries
Molecule	Sa growth 42C second temp	GIV-Gai inh	Sa growth 42C	HCMV UL50-53 inh
CC1=C(c2ccc(C)c(C)c2)S(=O)(=O)N(Cc2ccc(C(=O)NC(C)c3ccccc3)cc2)C1=O (stereo unspecified)	56	101	89	/
Cc1ccc2c(c1)c(=O)n(CCC(C)C)c1nnc(SCc3ccccc3C)n21	/	100	/	12
CCN(CC)c1ccc2cc(C(=O)NC(C)=O)c(=Nc3cccc(F)c3)oc2c1	/	114	/	-8
COc1ccc(C)cc1NC(=O)c1c(C)cn(C)c1CC(=O)O	93	109	96	-12
O=C(Nc1nccs1)c1ccoc1COc1ccccc1	91	105	103	-7
CCOc1ccccc1C1CC(=O)NC(C)=C1C(=O)OCc1ccc(C)cc1 (stereo unspecified)	84	108	99	-7
CC1CC1C(=O)OCC(=O)Nc1cccc(Cl)c1 (stereo unspecified)	78	/	93	-15
COCC(C)NC(=O)Nc1cn(C)c2ccccc12 (stereo unspecified)	86	105	97	-28
O=C(NCc1cccnc1)c1nc(-c2ccc(Cl)cc2)n2c1CCCCC2	66	102	88	/
COC(=O)c1c(NC(=O)c2nn(-c3ccc(Cl)cc3)ccc2=O)sc2c1CCCC2	/	104	/	1
CCN=C(Nc1ccc2c(c1)OCO2)SC1CC(=O)N(c2ccc(C(=O)OC)cc2)C1=O (stereo unspecified)	107	100	105	2
COc1ccc(C(=O)N[C@H](C(=O)Nc2nc3ccccc3[nH]2)C(C)C)cc1	82	/	85	0
Cn1nnc2c(N3CCC(C#N)(c4ccccc4)CC3)nc(Cc3ccc(Cl)cc3Cl)nc21	87	105	103	-2
O=C(Nc1ccc(F)cc1F)c1nn2c(C(F)(F)F)cc(-c3ccco3)nc2c1Cl	/	104	/	-13
O=C(Cn1c(-c2cccs2)cc2cc(F)ccc21)NCCc1ccc(Cl)cc1	84	101	115	-32
CC1(C)/C(=C\CC(=O)O)C2CCC1C2 (stereo unspecified)	99	105	157	-4
COc1ccc2c(CNCc3ccco3)c(C(=O)O)n(Cc3ccccc3)c2c1	78	104	86	/
Cc1ccc(C)c(N2CCN(C(=O)c3ccc(/C=C4\Oc5ccccc5NC4=O)cc3)CC2)c1	94	105	84	/
Cc1c(C(=O)O)cc(-c2ccccc2)n1CCSc1cc(C(F)(F)F)nc2ccccc12	84	103	83	/
O=C(O)CCc1ccc(NCc2cccc(Oc3ccccc3)c2)cc1	/	103	/	-3&-13&-22&-22&9
CCOC(=O)c1c(NC(=O)COc2ccc(F)cc2)sc2c1CCC(C)C2 (stereo unspecified)	77	102	97	-52
COc1cccc(N2CCN(C(=O)c3nc(-c4ccc(Cl)cc4)n4c3CCCCC4)CC2)c1	79	105	119	/
Cc1ccc2c(c1)c1nc3ccccc3nc1n2CCN1CCOCC1	87	102	95	-4
COc1ccccc1CNC(=O)C1CCCN(C(=O)N2CCOc3ccccc32)C1 (stereo unspecified)	78	109	94	-20
CCc1nc(-c2cc(S(=O)(=O)N3CCCC(C(=O)Nc4ccc5c(c4)OCO5)C3)c(C)s2)no1 (stereo unspecified)	/	107	/	-11
Cc1ccc(Nc2nc(Nc3ccc(C)cc3)nc(Sc3ncn[nH]3)n2)cc1	77	/	75	-19
N#CCNS(=O)(=O)c1cc(Cl)ccc1Cl	85	/	89	-19
Cc1ccc2nc(NCc3ccccc3)c(C=Nc3ccc(Cl)cc3)c(=O)n2c1	94	/	99	-14
COc1ccccc1C1CC(c2ccccc2)=NN1C(=O)c1ccccc1 (stereo unspecified)	/	105	/	-23
COCCN1C(=O)c2ccccc2C(C(=O)NC(C)C)C1c1c[nH]c2ccccc12 (stereo unspecified)	89	102	107	-1
Cc1ccc(N2C(=O)CCS2(=O)=O)cc1S(=O)(=O)NCCC1=CCCCC1	/	105	/	-1
Nc1ccccc1Sc1ncnc2scc(-c3ccccc3)c12	99	108	92	/
O=c1oc2c(Cl)cc(Cl)cc2cc1-c1nnc(Nc2ccccc2F)s1	/	108	/	5
c1ccc(CNc2c(-c3ccc4c(c3)OCCO4)nc3ncccn23)cc1	/	104	/	-54
Cc1ccc(C(c2c(O)[nH]c(=S)[nH]c2=O)N2CC(C)CC(C)C2)cc1 (stereo unspecified)	94	100	88	-16
COc1ccc(OC)c(-n2cnc3cc(C(=O)NCCc4ccccc4)ccc32)c1	89	103	129	/
Cc1nc(Cn2c(=O)oc3cc(S(=O)(=O)NCc4ccccn4)ccc32)no1	/	109	/	-21
Cc1c(C#N)c(NC(=O)CSc2nnnn2C2CCCC2)n(Cc2ccccc2)c1C	85	/	100	-4

Screening results deposited in PubChem BioAssay by ICCB-Longwood Screening Facility, Harvard Medical School.
